# Compound activity (PubChem)
# CFTR F508del: compounds raising F508del-CFTR protein level – cell-based, HeLa F508del-CFTR, immunofluorescence, viability, primary screen (AID 1224863); calls, or highest fold increase where a dose series was run; hit rate 0.1% among 10,000; HeLa F508del-CFTR, immunofluorescence total CFTR, 24 h; by the record results were divided by relative cell number; some inactives read as strong as hits; in the data nearly all actives have a first-pass fold increase above 1.5; a few of its hits are not listed in these tables;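 further: total CFTR protein by anti-CFTR immunofluorescence in fixed cells; first pass at 25 µM or 10 µg/mL by library and series up to twice that; 1 = untreated cells; first-pass hits also needed half or more of the cells alive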
# CFTR F508del fold 25 µM: further read-out of CFTR F508del, marked with its call; fold increase; measured here: primary screen single dose 25 uM; library dosed in µM
# CFTR F508del fold 10 ug/mL: second read-out of CFTR F508del, no call of its own (marks repeat the call); fold increase; measured here: primary screen 10 ug/mL
# CFTR F508del viability 25 µM: second read-out of CFTR F508del, no call of its own (marks repeat the call); viability, %; measured here: primary viability 25 uM; library dosed in µM;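 0% = killed and 100% = untreated cells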
# CFTR F508del viability 10 ug/mL: also measured in CFTR F508del; calls as there; viability, %; measured here: primary viability 10 ug/mL;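 0% = killed and 100% = untreated cells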
# * = called active by the depositor; i = inactive; · = no result given; + = active, no number; & = joins results of further samples. An excerpt. The share of hits here may be higher or lower than overall.
SMILES,CFTR F508del,CFTR F508del fold 10 ug/mL,CFTR F508del viability 10 ug/mL,others
N#Cc1ccc(CN2CCc3cc([N+](=O)[O-])ccc32)c(F)c1,+,1.53*,86.0*,
Brc1ccc(-c2oc(-c3ccccc3)cc2-c2nc3ccccc3[nH]2)cc1,i,1,93.0,
CC(OC(=O)C1(CC(=O)N2CCOCC2)CCCC1)C(=O)Nc1sc2c(c1C#N)CCCCC2 (stereo unspecified),i,1.1,100.0,
CCOC(=O)C1=C(CN2CCCC2c2ccc3c(c2)OCCCO3)NC(=O)NC1C (stereo unspecified),i,1.12,104.0,
COCCOc1ccc(C(=O)O)cn1,i,0.97,86.0,
Cc1nc(Sc2ncnc3ccsc23)c2c3c(sc2n1)CCC3,i,1,91.0,
CCOC(=O)N1CCN(C(=O)c2[nH]c(C)c(C(=O)OC)c2C)CC1,i,1.02,104.0,
S=c1nc(CCC2CCCC2)[nH][nH]1,i,1.09,86.0,
CCCn1c(N)c(C(=O)CN2CCC(O)CC2)c(=O)[nH]c1=O,i,1.07,91.0,
Cc1c2oc3c(C)ccc(C(=O)OC(C)C4NC(=O)C(C(C)C)N(C)C(=O)CN(C)C(=O)C5CCCN5C(=O)C(C(C)C)NC4=O)c3nc-2c(C(=O)OC(C)C2NC(=O)C(C(C)C)N(C)C(=O)CN(C)C(=O)C3CCCN3C(=O)C(C(C)C)NC2=O)c(N)c1=O (stereo unspecified),i,·,·,CFTR F508del fold 25 µM=0.6;CFTR F508del viability 25 µM=36.0
C=CCNC(=O)NC(=O)CN1CCN(Cc2ccc(Cl)s2)CC1,i,0.96,85.0,
Cn1cc(S(N)(=O)=O)c(N)n1,i,0.97,95.0,
Cc1[nH]c2ccccc2c1C(=O)CN1C(=O)CC2(CCCCC2)C1=O,i,0.95,87.0,
CCOC(=O)c1c(NC(=O)N2CCN(CC)CC2)sc(C)c1C,i,0.97,95.0,
CC(Cc1cccs1)NC(=O)C(C)(C)C (stereo unspecified),i,1.02,108.0,
O=C(CCS(=O)(=O)C1CCCC1)NC1CCN(C(=O)c2ccoc2)CC1,i,0.97,87.0,
CCOC(=O)c1c(NC(=O)CN2C(=O)C(=O)N(CC(C)C)C2=O)sc(C)c1C,i,1.06,98.0,
CC(C)(C)C(=O)/C=c1/s/c(=C/c2ccc3c(c2)OCO3)c(=O)n1Cc1cc(=O)n2ccsc2n1,i,1.05,93.0,
Cc1c(C(=O)NCc2nnc3n2CCC3)sc2ncn(C)c(=O)c12,i,1.04,101.0,
Cc1nc(N2CCNC(=O)C2)c2c3c(sc2n1)CCCCC3,i,0.97,96.0,
C1CCc2nnc(C3CCCN(c4nc(N5CCCC5)nc(N5CCCC5)n4)C3)n2CC1 (stereo unspecified),i,0.94,101.0,
NC(c1ccccc1)C1CCCCC1 (stereo unspecified),i,1.08,77.0,
CONC(=O)Cn1c(=O)[nH]c(=O)c2ccccc21,i,1.01,102.0,
O=C(C1=CN2CCS(=O)(=O)N=C2C=C1)N1CCN(S(=O)(=O)c2ccc3c(c2)OCCO3)CC1,i,1.04,107.0,
CC1CCC2(CC1)NC(=O)N(Cc1cc(Cl)c3c(c1)OCCCO3)C2=O (stereo unspecified),i,0.94,88.0,
N#Cc1nncn1CN1CCN(S(=O)(=O)c2c(Cl)cc(Br)cc2Cl)CC1,i,1.07,100.0,
Nc1ccc(C(=O)NCC(=O)O)cc1,i,·,·,CFTR F508del fold 25 µM=1.15;CFTR F508del viability 25 µM=114.0
Cc1cc(C(=O)NC(C)c2ccc(C)o2)on1 (stereo unspecified),i,1.02,102.0,
CCCNC(=O)C(C)NC(=O)Cc1c(C)nc2nc(N)nn2c1C (stereo unspecified),i,1.14,99.0,
O=S(=O)(Nc1ccccc1I)c1ccccc1Cl,i,0.94,97.0,
CS(=O)(=O)c1ccc(C(=O)OCc2cc(=O)oc3cc4c(cc23)CCC4)cc1[N+](=O)[O-],i,1.14,110.0,
O=C(CCNC(=O)C1CCCC1)NC1CC1,i,1.01,103.0,
COC(=O)COc1ccc(C(=O)OC)cc1OC,i,0.87,100.0,
Cc1nnc(NC(=O)CSC2CCCC2)s1,i,0.94,98.0,
Nc1ccc(S(=O)(=O)c2ccc(Br)cc2)cc1,i,1.01,82.0,
N#CC(N)c1cccc(Cl)c1Cl (stereo unspecified),i,1.04,86.0,
COc1cc2c(Nc3ccc(Br)cc3F)ncnc2cc1OCC1CCN(C)CC1,i,·,·,CFTR F508del fold 25 µM=0.84;CFTR F508del viability 25 µM=84.0
O=[N+]([O-])c1c(NCC(C2CCOC2)N2CCOCC2)nc2ccccn12 (stereo unspecified),i,0.99,99.0,
CC(=O)NCc1ccc(-c2csc(NC(=O)c3cc(C)no3)n2)o1,i,1.08,99.0,
CONC(=O)COc1cccc2ccccc12,i,0.99,102.0,
CC(C(=O)NCCC1=CCCCC1)N1CCN(c2nccs2)CC1 (stereo unspecified),i,0.91,92.0,
Cn1c(CSc2nc3ccccc3s2)nnc1SCc1nnc(-c2ccc([N+](=O)[O-])cc2)o1,i,1.05,80.0,
Cn1cc(S(=O)(=O)N2CCN(c3ccccc3Cl)CC2)c(=O)n(C)c1=O,i,0.96,88.0,
O=[N+]([O-])c1cc(F)ccc1S(=O)(=O)Nc1ccc2c(c1)OCCO2,i,0.91,78.0,
CC(NS(=O)(=O)C1=Cc2ccccc2CC1)c1ccc(-n2cncn2)cc1 (stereo unspecified),i,1.09,94.0,
O=C(Nc1nc(-c2ccc(Br)s2)cs1)C1CC1,i,1,88.0,
O=C1NS(=O)(=O)c2ccccc21,i,·,·,CFTR F508del fold 25 µM=1.13;CFTR F508del viability 25 µM=102.0
CC(O)Cn1cnc2c1c(=O)n(C)c(=O)n2C (stereo unspecified),i,·,·,CFTR F508del fold 25 µM=1.09;CFTR F508del viability 25 µM=83.0
O=C(O)CNC(=O)Cn1cncn1,i,0.95,99.0,
Cc1csc2nc(CO)cc(=O)n12,i,1.17,99.0,
CC(=O)NCCNC(=O)CN1CCCC1c1ccsc1 (stereo unspecified),i,0.91,84.0,
Cn1cnc([N+](=O)[O-])c1NCCc1cccc2ccccc12,i,0.94,86.0,
NC(=O)C1CCCN1S(=O)(=O)c1ccc(Cl)s1 (stereo unspecified),i,1.06,97.0,
CN(CN1C(=O)NC2(CCCCC2)C1=O)CC12CC3CC(CC(C3)C1)C2,i,1.08,87.0,
CNC(=O)NC(=O)CSc1nc(N)c2c3c(sc2n1)CCCCC3,i,0.88,86.0,
O=C1CCC(C(=O)OCCCC(=O)c2ccc(F)cc2)=NN1,i,1.07,93.0,
COc1cc(CCN2C(=O)c3ccccc3C2(O)c2ccccc2)c([N+](=O)[O-])cc1OC (stereo unspecified),i,1.01,85.0,
O=S(=O)(c1ccc2c(c1)OCCO2)N1CCN2CCCCC2C1 (stereo unspecified),i,0.98,92.0,
Cc1nc(C)c(-c2nnc(SCc3nc(-c4cccs4)oc3C)o2)s1,i,0.91,84.0,
CC(C)CN1CC(C(=O)Nc2ccc3nc(C(C)(C)C)[nH]c3c2)CC1=O (stereo unspecified),i,0.98,103.0,
# Other compounds.
SMILES,CFTR F508del,CFTR F508del fold 10 ug/mL,CFTR F508del viability 10 ug/mL,others
O=C(Nc1ccncc1)C12CC3CC(CC(Cl)(C3)C1)C2,i,0.93,92.0,
CN(C1CCS(=O)(=O)C1)S(=O)(=O)c1ccc2c(c1)CCCC2 (stereo unspecified),i,1,97.0,
O=C1NC(c2cc(Br)ccc2OC(F)F)Nc2ccccc21 (stereo unspecified),i,1.01,103.0,
CC1=C(/C=C/C(C)=C/C=C/C(C)=C\C(=O)O)C(C)(C)CCC1,i,·,·,CFTR F508del fold 25 µM=0.92;CFTR F508del viability 25 µM=67.0
CCc1ccc(CN(C)CN2C(=O)NC(C)(C3CC3)C2=O)cc1 (stereo unspecified),i,1.1,99.0,
Cc1ccc(S(=O)(=O)N2CCCN(S(=O)(=O)C3=Cc4ccccc4CC3)CC2)cc1,i,1.04,95.0,
CCOC(=O)C1=C(C)NC(C)=C(C(=O)OCC)C1c1ccccc1/C=C/C(=O)OC(C)(C)C,i,·,·,CFTR F508del fold 25 µM=0.93;CFTR F508del viability 25 µM=82.0
O=C(OCc1cccc(C(F)(F)F)c1)c1cnc2n(c1=O)CCS2,i,1.02,86.0,
Cc1cc(-n2c(C)cc(C(=O)CSc3nc4ncccn4n3)c2C)no1,i,0.91,81.0,
CC1CN(S(=O)(=O)N2CCN(C(=O)c3nccnc3N)CC2)CC(C)O1 (stereo unspecified),i,0.96,90.0,
O=C(c1cc2cc(Br)ccc2o1)c1cc(F)ccc1F,i,1.23,103.0,
COc1cc(F)c(S(=O)(=O)N2CCCc3cccc(F)c32)cc1OC,i,1.2,96.0,
CC1Cc2cc([N+](=O)[O-])ccc2N1Cn1nnc2ccccc2c1=O (stereo unspecified),i,0.93,90.0,
COc1ccccc1-c1noc(CN(C)Cc2nc3ccccc3s2)n1,i,0.96,83.0,
Cc1sc2nc(CSc3ccc(Br)cc3)nc(NCCS(C)(=O)=O)c2c1C,i,1.03,88.0,
Cc1ccc(C2(C)NC(=O)N(CCn3c(=O)oc4ccccc43)C2=O)cc1 (stereo unspecified),i,1.09,84.0,
Cn1c2ccccc2c2cc(S(=O)(=O)N3CCN(c4ncccn4)CC3)ccc21,i,0.97,91.0,
COc1cc(OC)c(C2=CCN(S(=O)(=O)c3cccc4nsnc34)CC2)c(OC)c1,i,0.87,109.0,
CC(NC(=O)c1ccoc1)C(=O)N1CCN(C(=O)OC(C)(C)C)CC1 (stereo unspecified),i,1.01,102.0,
O=C(COc1ccc2c3c(c(=O)oc2c1)CCC3)NCC1CCCO1 (stereo unspecified),i,1.11,85.0,
O=C(NCCC1=CCCCC1)c1ccc(=O)[nH]n1,i,1.06,94.0,
CCOC(=O)c1sc(N)c(C(=O)OCC)c1CSc1nncn1C,i,1.04,97.0,
Cn1cc[nH]c1=S,i,·,·,CFTR F508del fold 25 µM=1.14&0.86&1.03;CFTR F508del viability 25 µM=105.0&111.0&105.0
CC1CN(S(=O)(=O)N2CCN(C(=O)C3CCCCC3)CC2)CC(C)O1 (stereo unspecified),i,0.97,81.0,
O=C1C(=O)N(CN2CCCN(S(=O)(=O)c3ccc(F)cc3)CC2)C(=O)N1Cc1ccccc1,i,0.89,107.0,

# Compounds above that have two or more sulfur atoms, in the order listed:
SMILES,CFTR F508del,CFTR F508del fold 10 ug/mL,CFTR F508del viability 10 ug/mL,others
Cc1nc(Sc2ncnc3ccsc23)c2c3c(sc2n1)CCC3,i,1,91.0,
CC(C)(C)C(=O)/C=c1/s/c(=C/c2ccc3c(c2)OCO3)c(=O)n1Cc1cc(=O)n2ccsc2n1,i,1.05,93.0,
O=C(C1=CN2CCS(=O)(=O)N=C2C=C1)N1CCN(S(=O)(=O)c2ccc3c(c2)OCCO3)CC1,i,1.04,107.0,
Cc1nnc(NC(=O)CSC2CCCC2)s1,i,0.94,98.0,
Cn1c(CSc2nc3ccccc3s2)nnc1SCc1nnc(-c2ccc([N+](=O)[O-])cc2)o1,i,1.05,80.0,
O=C(Nc1nc(-c2ccc(Br)s2)cs1)C1CC1,i,1,88.0,
NC(=O)C1CCCN1S(=O)(=O)c1ccc(Cl)s1 (stereo unspecified),i,1.06,97.0,
CNC(=O)NC(=O)CSc1nc(N)c2c3c(sc2n1)CCCCC3,i,0.88,86.0,
Cc1nc(C)c(-c2nnc(SCc3nc(-c4cccs4)oc3C)o2)s1,i,0.91,84.0,
CN(C1CCS(=O)(=O)C1)S(=O)(=O)c1ccc2c(c1)CCCC2 (stereo unspecified),i,1,97.0,
Cc1ccc(S(=O)(=O)N2CCCN(S(=O)(=O)C3=Cc4ccccc4CC3)CC2)cc1,i,1.04,95.0,
Cc1sc2nc(CSc3ccc(Br)cc3)nc(NCCS(C)(=O)=O)c2c1C,i,1.03,88.0,
COc1cc(OC)c(C2=CCN(S(=O)(=O)c3cccc4nsnc34)CC2)c(OC)c1,i,0.87,109.0,
CCOC(=O)c1sc(N)c(C(=O)OCC)c1CSc1nncn1C,i,1.04,97.0,
